Assay outcomes deposited in PubChem BioAssay by ICCB-Longwood Screening Facility, Harvard Medical School.
GIV-Gai inh: inhibitors of GIV GBA-motif binding to rat Galpha-i3; P08753; Galpha-i3/FITC-GIV peptide fluorescence polarization, 90 min; stronger effect = lower value; scaled: aluminum fluoride 0%, vehicle 100%; percent of control (FP), % (concentration not given with the values); actives 0.42% (n = 210,000); AID 1224905;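 active = replicate mean at 85% of control or lower, very high polarization wells dropped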;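 note: wells of about 15 µL received 100 nL stock; the first replicate is given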
Target sequence (P08753 whole entry, looked up): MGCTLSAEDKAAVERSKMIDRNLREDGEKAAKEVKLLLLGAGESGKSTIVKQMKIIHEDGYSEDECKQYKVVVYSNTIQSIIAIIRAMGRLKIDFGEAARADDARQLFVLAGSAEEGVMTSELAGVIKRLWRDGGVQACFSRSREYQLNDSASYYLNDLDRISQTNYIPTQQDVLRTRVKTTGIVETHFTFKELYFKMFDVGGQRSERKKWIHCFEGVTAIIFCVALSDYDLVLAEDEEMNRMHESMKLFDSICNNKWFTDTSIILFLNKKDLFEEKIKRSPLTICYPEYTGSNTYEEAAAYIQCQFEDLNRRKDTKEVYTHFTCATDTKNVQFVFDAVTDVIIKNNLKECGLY
HCMV UL50-53 inh: disrupts HCMV UL50-UL53 complex binding; HTRF UL50-UL53 interaction, normalized percent inhibition; inhibition, % (no concentration beside the values); actives 0.15% (n = 190,000);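 active = both replicates at 50% or more, plus weaker picks with an unusually low signal ratio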;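 note: stock transfer was 100 nL into about 20 µL; 0% = negative control wells and 100% = wells with untagged competitor protein; inactives centre near -12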
Sa growth 42C: blocks Staphylococcus aureus growth. S. aureus RN4220 growth, OD600, 20 h, 42 °C; stronger effect = lower value. relative growth, % (no concentration beside the values). actives 0.53% (n = 170,000). AID 720641;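 active = growth at 42 °C up to 50% and 20 or more points under that at 30 °C, or under 10% at both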;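 note: 300 nL library stock went into each well; scaled to the means of positive and negative controls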
Sa growth 42C second temp: further read-out of Sa growth 42C, marked with its call; relative growth, %; measured here: growth at 30 °C;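 optical density after 20 h as mean of two plates; 100% = untreated growth and lower means inhibition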
Active calls of the source: *; / = not tested or not shown; & = joins results of further samples. This is a random part of the collection; 0.8% or so of the library scored in one or more.

SMILES	GIV-Gai inh	HCMV UL50-53 inh	Sa growth 42C	Sa growth 42C second temp
CCOc1ccc(Cn2c(CNS(=O)(=O)c3cccc(Cl)c3)nc3cccnc32)cc1	105	/	108	87
O=C(Nc1c(C(=O)O)oc2ccccc12)c1ccc(C(F)(F)F)cc1	104	/	105	93
O=C(CNCCO)N1CCN(S(=O)(=O)c2ccc3ccccc3c2)CC1	/	-5	98	100
CC1CCN(S(=O)(=O)c2ccc3c4c(cccc24)C(=O)N3)CC1	102	-33&-22	90	83
COCCn1c(CNC(=O)c2cc(OC)c(OC)c(OC)c2)nc2cccnc21	107	/	111	90
O=C1c2cccc3cccc(c23)C(=O)N1CCCc1nc2sc3c(c2c(=O)[nH]1)CCCC3	99	-17	/	/
COc1cc(C(=O)NCc2nnc(SCC(=O)NC3CCCCC3)o2)cc(OC)c1OC	102	-26	87	89
CC(N=c1ccccn1C(=O)Nc1ccc(Cl)c(Cl)c1)c1ccco1 (configuration not stated)	/	-12	-0.8*	-0.9*
CCOC(=O)N1CCN(C(=O)CN(C)S(=O)(=O)c2cc(Cl)ccc2Cl)CC1	104	-4	98	78
CCc1nnc(-c2cc(S(=O)(=O)NC3CCC(C)CC3)c[nH]2)o1 (configuration not stated)	101	-20	/	/
O=C(NC(O)C(=O)c1cccs1)c1ccncc1 (configuration not stated)	104	10	93	84
COc1ccc(NC(=O)N2CCN(C)c3ncccc32)cc1	98	-20	/	/
CCc1cc(=O)oc2c(C)c(OCC(=O)Nc3ccc4c(c3)OCO4)ccc12	/	-21	91	88
CCn1c(/C=C/c2cn(CC)c3ccccc23)nc2ccccc2c1=O	107	-13	/	/
CC(C)NC(=O)c1cc2c(Cl)nc3ccccc3c2s1	108	-2	98	83
COCCCNC(=O)Cn1c(=O)n(-c2cccc(C)c2)c(=O)c2c1c1cc(C)ccc1n2C	98	/	102	87
CCOC(=O)N1CCN(c2ncc3c(n2)CC(C)CC3=O)CC1 (configuration not stated)	99	-24	/	/
COc1ccc(CNC(=O)c2cc3c(=O)n(Cc4cccs4)ccc3nc2C)cc1	94	/	100	101
Cc1n[nH]c(C)c1S(=O)(=O)N(CC(=O)NCc1ccccc1Cl)c1ccc(C(C)C)cc1	102	-34	74	76
COc1ccc(NC2CS(=O)(=O)CC2OC(=O)c2ccc(F)cc2)cc1 (configuration not stated)	/	-2	103	97
CC1c2ccsc2CCN1C(=S)NC(=O)c1cccs1 (configuration not stated)	108	-1	-0.4*	0.0*
Cc1c(NC(=O)c2cccc(Cl)c2)c(-n2cnnc2)nn1C	101	-5	/	/
COc1ccc(C(=O)CSc2nc3ccc(Cl)cc3[nH]2)cc1OC	110	7	/	/
O=C(COC(=O)/C=C/c1ccco1)Nc1ccccc1C(F)(F)F	/	-18	92	94
COc1cc2c(=O)c(S(=O)(=O)c3ccccc3)cn(CC(=O)Nc3ccccc3C)c2cc1OC	103	-42	105	86
O=C(CSc1nncn2c1cc1occc12)NCCc1ccccc1	109	/	90	81
CC(=O)n1nc(-c2ccccc2)nc1N	101&103	-8&-22	109	94
Cc1ccc2c(c1)c1c(n2C)C(O)CCC1 (configuration not stated)	101	-11	114	98
CCc1ccc(CNC(=O)C2CCCN(c3nnc(C)c4c(C)n(-c5ccccc5)nc34)C2)cc1 (configuration not stated)	108	/	95	69
COc1ccc(CCNC(=O)CCc2nnc3c4cc(-c5ccc(C)c(C)c5)nn4ccn23)cc1OC	111	-3	/	/
Cc1ccc(NC(=O)C2=C(O)CCn3c2nc2ccccc23)cc1	101	-15	141	87
CC(C)Cc1cc(C(=O)NCCCN2CCOCC2)no1	100	-4	102	93
CC(C)CCSc1nnc(N)s1	106	-4	102	98
O/N=C/Cc1[nH]c2ccccc2c1-c1ccccc1	107	-22	128	74
CC1CCc2c(sc3nnn(Cc4ccccc4)c(=O)c23)C1 (configuration not stated)	106	-40	108	79
COc1ccc(Cn2c(SCc3ccc(C(=O)NCc4ccc(C)cc4)cc3)nc3cccnc32)cc1	101	-6	101	82
Cc1cccc(N2CC(c3nc4ccccc4[nH]3)CC2=O)c1 (configuration not stated)	110	-12	93	95
C=CCOc1ccc(C(=O)N(Cc2ccccc2)C2CCS(=O)(=O)C2)cc1 (configuration not stated)	105	-7	102	88
CC1=Nc2nc(N3CCCC3)c(C#N)c3c4c(nc(c23)N1)N(c1ccc(S(N)(=O)=O)cc1)C(=O)C4	/	-30	95	81
CCOc1cccc2cc(C(=O)N3CCc4ccccc43)c(=O)oc12	110	-1	116	99
CCOC(=O)c1c(C)n(-c2ccc(C)cc2)c2ccc(OCC(O)CN3CCOCC3)cc12 (configuration not stated)	103	0	/	/
CCc1noc(N)c1C(=O)Nc1ccc(C)c(Cl)c1	103	11	100	92
O=C(NCc1ccccc1)C(=O)NCC(c1ccco1)S(=O)(=O)c1cccs1 (configuration not stated)	94	/	113	87
Cc1cc(C)nc(NNC(=S)NC2CC3CCC2C3)n1 (configuration not stated)	/	-23	82	93
C/C(=N\NC(=O)CSc1ncccn1)c1ccc(C)cc1	99	-32	89	87
COc1ccccc1NC(=O)Cn1c(SCC(=O)Nc2ccc(F)cc2)nc2ccccc21	99	/	83	88
COC(=O)c1cc(CSc2ncnc3sccc23)oc1C	/	-28	72	96
O=C(CSc1nc2c([nH]c3ccccc32)c(=O)n1-c1ccc(F)cc1)N1CCCCCC1	95	/	101	97
Cc1ccc(S(=O)(=O)C(F)(F)F)cc1N	/	15	86	97
Clc1cc2c(c(CSc3nnc(-c4ccco4)n3-c3ccccc3)c1)OCOC2	/	-4	98	63

Next structures.
SMILES	GIV-Gai inh	HCMV UL50-53 inh	Sa growth 42C	Sa growth 42C second temp
COc1ccc(S(=O)(=O)N(Cc2nc(-c3cccc(C)c3)no2)C2CCCCC2)cc1	106	-18	110	95
NNC(=O)c1cc2sc(Cl)cc2[nH]1	100	-14	81	78
CCC(=O)c1cn(CC(=O)N2CCOCC2)c2ccccc12	112	6	102	104
Cn1c(O)c(/C=C/c2ccc3ccccc3n2)c(=O)[nH]c1=O	106	-99	87	88
CCc1c(C)nc(SCC(=O)N2CCN(c3ccccc3)CC2)[nH]c1=O	98	/	87	88
Cc1nn(C)c2nc(OCC(=O)NCC3CCCO3)cc(C(F)(F)F)c12 (configuration not stated)	103	-18	/	/
CCOC(=O)C1=C(C)NC(=O)NC1c1cn(-c2ccccc2)nc1-c1ccc(OC)cc1 (configuration not stated)	92	-13	/	/
COc1ccc(Br)cc1CNC(=O)Cn1ncc2c(=O)oc3ccccc3c21	88	9	/	/
CCOC(=O)Cn1c(=O)c(C(=O)NC(=O)OCC)cn(Cc2ccccn2)c1=O	105	2	105	98
CC(C)COc1ccc(C(O)c2ccccc2)cc1 (configuration not stated)	/	-1	104	101
CC1CCN(C(=O)c2cc3c(s2)-c2ccccc2OC3)CC1	102	-22	/	/
Cc1cc(C)c2c(N)c(C(=O)NN3CC(=O)N(c4ccccc4)CC3=O)sc2n1	100	-54	97	95
Cc1cc(-c2ccc(C)c(S(=O)(=O)N3CCN(C4CCCCC4)CC3)c2)n[nH]1	103	4	97	101
CCN(CC)S(=O)(=O)c1ccc2nc(NC(=O)c3ccccc3OC)sc2c1	104	/	101	104
CNC(=O)c1cc2oc3ccccc3c2n1C	111	0	132	98
CC(C)OC(=O)C(C)Oc1ccc2c(=O)c(Oc3ccc(C(C)(C)C)cc3)coc2c1 (configuration not stated)	99	-16	/	/
Cc1oc2ncn(CC(C)C)c(=O)c2c1C(=O)NCCCN1CCCCC1C (configuration not stated)	104	/	82	87
CCOc1ccccc1NC(=O)COC(=O)CC(C)(C)CC1=NS(=O)(=O)c2ccccc2N1	105	/	108	81
c1ccc(CC2CCCNC2)cc1 (configuration not stated)	103	-20	100	93
COc1ccc(-c2cc(-c3ccccc3)nc3c2COc2ccccc2-3)cc1	104	-21	89	90
Cc1ccc(CNC(=O)C2CCCN(c3ncnc4onc(-c5ccc(F)cc5)c34)C2)cc1 (configuration not stated)	106	/	100	82
Cc1nnc(SC(=O)N2c3ccccc3Sc3ccccc32)s1	105	/	119	76
Nc1nc(-c2ccccc2)c(-c2ccccc2)o1	/	-34	116	86
CCOCCSc1nnc2n(-c3ccccc3)c(=O)c3ccccc3n12	/	-23	97	94
CC(=O)Nc1cccc(-c2csc(C)n2)c1	/	-9	80	80
Cc1ccccc1NC(=O)CS(=O)(=O)c1ccccc1	99	0	91	95
CCN(Cc1cc(=O)n2c(C)csc2n1)c1ccc(OC)cc1	102	-26	95	74
CCn1c(=O)c2cc(C(=O)NC3CCCCCC3)sc2c2ccccc21	104	-21	100	93
COc1ccc(/C=N/N2C(=O)C3C=CC=CC3N=C2C)cc1OC (configuration not stated)	105	11	95	90
CC1(C)CC(=O)c2cc(C(=O)Nc3ccccc3Cl)c(=O)n(-c3ccc(Cl)cc3)c2C1	99	/	93	89
O=C(O)C1CC(=O)N(c2cccc(C(F)(F)F)c2)C1 (configuration not stated)	/	-24	91	88
CCOC(=O)c1c(C)[nH]c(CCC(=O)NCc2cc(Br)ccc2OC)c1C	111	/	112	90
NC(=O)c1cc(-c2ccc(COc3ccccc3)cc2)nc2ccccc12	106	-13	98	84
CCc1ccccc1NC(=S)N(Cc1ccco1)C(C)c1ccco1 (configuration not stated)	111	-4	105	100
O=C(CN1CCCc2ccccc21)N/N=C/c1ccccc1	105	-12	103	95
O=C(O)CCc1ccc(-c2ccccc2)n1-c1cccc(O)c1	111&105	-20	119	88
CCN1c2cccc3cccc(c23)S1(=O)=O	99	-34	108	72
Cc1cc(C(=O)O)c2cc(Br)ccc2n1	100	-32	90	86
Cc1cccc(-c2nsc(SCC(=O)OCc3ccccc3)n2)c1	107	/	102	83
Cn1c(=O)c(=O)n(C)c2cc(S(=O)(=O)N3CC(=O)N(CCc4ccccc4)C(=O)C3)ccc21	110	3	99	92
COc1ccc(CC(=O)N2CCN(c3c(C)n(C)c(=O)n(C)c3=O)CC2)cc1	103	-36	/	/
COc1ccc(NC(=O)Cn2nc(C(F)(F)F)c3c2CCCC3)cc1OC	99	-33	95	89
COc1ccc(C(=O)Nc2nc(CC(=O)NC3CCCCC3)cs2)cc1	106	-16	/	/
CCOC(=O)N1CCc2c(sc(NCc3cc(OC)c(OC)cc3OC)c2C(=O)Nc2ccc(OCC)cc2)C1	109	/	86	78
CCn1c(=O)cc(OCC(=O)NCc2ccccc2Cl)c2ccccc21	104	-10	51	35
CCCCCCCOC(=O)C1=C(C)NC(=O)NC1c1cc(OC)c(OC)c(OC)c1 (configuration not stated)	116	-4	/	/
O=c1[nH]c(SCc2ccc(Br)cc2)nc2c1cnn2-c1ccc(F)cc1	101	-11	/	/
Cc1ccc(C)c(N2C(=O)c3ccc(C(=O)N4CCCN(C)c5nc6ccccc6nc54)cc3C2=O)c1	/	16	112	98
O=C(c1ccc2c(Cl)c3c(nc2c1)CCC3)N1CCCC1	99	/	92	82
CCOc1ccccc1CNC(=O)c1ccc2c(c1)sc1nc(-c3ccccc3)cn12	100	/	144	85

(list continues)
SMILES	GIV-Gai inh	HCMV UL50-53 inh	Sa growth 42C	Sa growth 42C second temp
O=C(COc1ccccc1-c1nnc(-c2ccccc2)o1)N1CCN(c2ccccn2)CC1	108	-13	/	/
O=C(c1cnn2c(C(F)(F)F)cc(-c3ccccc3)nc12)N1CCN(c2ccccn2)CC1	104	-5	/	/
CCOC(=O)N1CCN(C(=O)c2ccc3c(=O)n(CCC4=CCCCC4)c(=S)[nH]c3c2)CC1	102	-24	99	90
O=C(CSc1ccccc1)Nc1ccncc1	100	-2	132	91
O=c1[nH]nc(Cc2ccncc2)c2ccccc12	103	10&-7	88	86
CN1c2ccccc2C(C)(C)C12CC(c1ccc(S(=O)(=O)N(C)C)cc1)=NO2 (configuration not stated)	/	-8	92	88
Nc1cccc(-c2nc3ccc(C(=O)c4ccccc4)cc3[nH]2)c1	100	-21	92	61
O=C(Nc1cccc(Br)c1)C1C(c2ccccc2)=C1c1ccccc1	98	/	105	87
